ALR H2O2 inh = blocks human ALR sulfhydryl oxidase activity; P55789; purified ALR, DTT oxidation, H2O2 HRP-luminol luminescence; inhibition, % (concentration not given with the values); actives 3.8% (n = 290,000);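 active = mean and each replicate at 75% or more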;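 note: stock transfer was 7.5 nL into about 7.5 µL; 0% = neutral wells and 100% = wells with inactivated enzyme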
Target sequence (P55789 whole entry, looked up): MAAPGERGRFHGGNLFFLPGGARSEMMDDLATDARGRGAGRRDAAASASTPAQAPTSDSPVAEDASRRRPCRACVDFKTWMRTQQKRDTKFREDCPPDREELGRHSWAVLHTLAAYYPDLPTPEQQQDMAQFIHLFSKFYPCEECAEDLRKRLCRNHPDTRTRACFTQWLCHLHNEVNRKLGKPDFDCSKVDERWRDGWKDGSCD
B2AR ag = human beta-2 adrenergic receptor agonism by FAP; Am2.2-beta2AR cells, FAP receptor internalization, flow cytometry; reference of the scale not given here; response, % (test concentration not listed); P07550; actives 0.43% (n = 340,000);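 active = response above a set limit, near 3 SD of response in nonfluorescent compounds, cut at about 42% in these data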;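 note: stock transfer was 100 nL into about 11 µL; a reference agonist was the positive control; negative values mostly stem from fluorescent compounds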
Target sequence (P07550 whole entry, looked up): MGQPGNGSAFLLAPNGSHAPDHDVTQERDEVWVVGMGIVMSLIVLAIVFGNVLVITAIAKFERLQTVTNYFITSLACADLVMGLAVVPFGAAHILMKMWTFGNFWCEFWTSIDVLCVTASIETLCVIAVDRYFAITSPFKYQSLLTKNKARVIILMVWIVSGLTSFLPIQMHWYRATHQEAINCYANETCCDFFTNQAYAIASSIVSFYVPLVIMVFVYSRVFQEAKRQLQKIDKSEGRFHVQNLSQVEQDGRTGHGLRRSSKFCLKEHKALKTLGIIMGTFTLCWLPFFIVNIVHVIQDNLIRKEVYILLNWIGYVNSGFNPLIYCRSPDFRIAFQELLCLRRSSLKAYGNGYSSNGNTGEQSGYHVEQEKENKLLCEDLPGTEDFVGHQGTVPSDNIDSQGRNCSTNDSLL
E coli growth = blocks Escherichia coli growth. OD600, 23 h; stronger effect = lower value. OD600 absorbance (concentration not given with the values). actives 0.21% (n = 330,000). AID 1053175;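 active = OD600 absorbance below the run mean of sample wells minus 3.6 SD, in any replicate, cut at about 0.56 in these data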;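 note: stock transfer was 300 nL into about 60 µL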
rRNA inh HTS = selective bacterial rRNA inhibition in E. coli. GFP signal change (wild-type ribosome), % (test concentration not listed). E. coli WT GFP vs humanized-ribosome RFP mutants, fluorescence, 24 h; stronger effect = lower value; DMSO median 0, no signal -100. actives 1.6% (n = 350,000);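 active = significant combined selectivity score with lowered wild-type GFP, culture density cut under 30%, mutant RFP and density less affected; inactive = any of these conditions unmet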; note: one replicate is shown; some compounds called inactive have numbers as strong as hits
HNF4A DNA FP = change in binding of human HNF4 alpha to DNA | P41235 | HNF4a-FITC DNA binding, fluorescence polarization, 1 h | activity change, % at 10 µM | actives 0.3% (n = 360,000) | AID 1224865; in the data active = activity change above about 30%, passing the limit was not always enough;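 note: controls were the assay level and a saturating level of protein; the project sought stronger binding though the title names inhibitors; some compounds called inactive have numbers as strong as hits; positive values seem to mean higher polarization but the record does not say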
Target sequence (P41235 whole entry, looked up): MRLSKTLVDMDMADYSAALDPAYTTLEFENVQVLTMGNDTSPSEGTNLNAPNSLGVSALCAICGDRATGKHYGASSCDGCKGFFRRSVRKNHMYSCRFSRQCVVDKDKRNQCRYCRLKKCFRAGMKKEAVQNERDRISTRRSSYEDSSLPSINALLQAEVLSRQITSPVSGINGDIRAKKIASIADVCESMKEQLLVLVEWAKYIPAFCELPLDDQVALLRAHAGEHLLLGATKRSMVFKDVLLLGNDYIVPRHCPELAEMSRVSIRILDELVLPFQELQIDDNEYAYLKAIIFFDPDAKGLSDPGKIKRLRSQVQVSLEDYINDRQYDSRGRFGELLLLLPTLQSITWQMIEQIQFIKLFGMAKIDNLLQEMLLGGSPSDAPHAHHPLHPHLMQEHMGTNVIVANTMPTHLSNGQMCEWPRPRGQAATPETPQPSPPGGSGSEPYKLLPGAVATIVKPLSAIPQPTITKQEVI
FGF22 binding = binders of recombinant human FGF22 by thermal shift; actives 1.5% (n = 340,000); calls only at 9.99 µM; SYPRO orange fluorescence; percent of sucrose octasulfate shift, DMSO zero; AID 651658;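 active = melting point raised past a set limit in the mean and every replicate; three in four hits are not shown here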
UCH37 inh = human UCH37 deubiquitinating enzyme inhibition; Q9Y5K5; purified proteasome/UCH37, Ub-AMC cleavage fluorescence; inhibition, % (concentration not given with the values); actives 0.33% (n = 330,000); AID 588478;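 active = mean of two replicates above 20%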;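 note: 0% = compound-free wells with enzyme and 100% = wells lacking proteasome; stock transfer was 100 nL into about 20 µL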
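Signal – fluorescence, ex 355 nm, em 460 nm · System – Proteasome-bound UCH37 · Input – 0.15 nM proteasome as dispensed · Timing – 30 min preincubation with enzyme, 25 min cleavage at room temperature · Read-out basis – percent inhibition of cleavage signal versus uninhibited and no-proteasome wells · Medium – Tris-HCl pH 7.4 with ATP-MgCl2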
rRNA inh HTS OD600 = also measured in rRNA inh HTS; calls as there; OD600 change, %; measured here: OD600 growth;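 optical density of the mix in the first replicate; 0 = DMSO median and -100 = no signal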
rRNA inh HTS RFP = second read-out of rRNA inh HTS, no call of its own (marks repeat the call); RFP signal change, %; measured here: RFP humanized mutant strains;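 first replicate; 0 = DMSO median and -100 = no signal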
Numbers without * were called inactive; i = inactive; . = no result given. Only part of the results is shown, so the mix of outcomes need not match the whole.

Sample of the layout, six compounds:
SMILES	ALR H2O2 inh	B2AR ag	E coli growth	rRNA inh HTS	rRNA inh HTS OD600	rRNA inh HTS RFP	HNF4A DNA FP	FGF22 binding	UCH37 inh
Cc1cc(C)c(NC(=S)N(C)C)c(C)c1	0	1	0.68	5	1	-0.2	0.8	i	2.7
O=C(O)C1C2C=CC3(O2)C1C(=O)N1c2ccccc2C2OCCC2C13 (stereo unspecified)	-5	-2	0.65	.	.	.	-7.7	.	0.5
N#Cc1cc(C(=O)c2cc(F)ccc2O)cn(-c2nccs2)c1=O	33	-67	0.68	.	.	.	36	.	5.5
CC12CCC(C(=O)C1)C1(C)CCCC(=O)C21 (stereo unspecified)	.	2	.	7	15	2.1	0.3	i	.
CC(C(=O)N1CCCCC1)N(C)CC(=O)Nc1cccc(F)c1 (stereo unspecified)	0	.	0.69	3	11	-1.5	.	i	4.8
COc1ccc(C(=O)c2c(C)c(CCC#N)n3ccccc23)c(OC)c1	-4	-20	0.64	-1	-3	9.2	3.6	i	12

The whole of this part, from the first entry:
SMILES	ALR H2O2 inh	B2AR ag	E coli growth	rRNA inh HTS	rRNA inh HTS OD600	rRNA inh HTS RFP	HNF4A DNA FP	FGF22 binding	UCH37 inh
Cc1cc(C)c(NC(=S)N(C)C)c(C)c1	0	1	0.68	5	1	-0.2	0.8	i	2.7
O=C(O)C1C2C=CC3(O2)C1C(=O)N1c2ccccc2C2OCCC2C13 (stereo unspecified)	-5	-2	0.65	.	.	.	-7.7	.	0.5
N#Cc1cc(C(=O)c2cc(F)ccc2O)cn(-c2nccs2)c1=O	33	-67	0.68	.	.	.	36	.	5.5
CC12CCC(C(=O)C1)C1(C)CCCC(=O)C21 (stereo unspecified)	.	2	.	7	15	2.1	0.3	i	.
CC(C(=O)N1CCCCC1)N(C)CC(=O)Nc1cccc(F)c1 (stereo unspecified)	0	.	0.69	3	11	-1.5	.	i	4.8
COc1ccc(C(=O)c2c(C)c(CCC#N)n3ccccc23)c(OC)c1	-4	-20	0.64	-1	-3	9.2	3.6	i	12
O=C(CSc1nnc(C2CC2)n1CC1CCCO1)Nc1cccc(Cl)c1 (stereo unspecified)	-12	2	0.68	-1	-3	-0.9	1.2	i	6.1
O=C(COC(=O)c1ccc(Br)o1)Nc1nc2c(F)c(F)c(F)cc2s1	.	5	0.65	-4	1	1.7	3.2	i	0.4
COCCn1c(SCC(=O)NC(C)c2ccccc2)nc2ccccc21 (stereo unspecified)	3	1	.	0	5	-4.8	-1.2	i	.
CC(=O)Nc1ccc(S(=O)(=O)Nc2cccc(-c3ccc4nncn4n3)c2)cc1	3	3	0.65	-1	-1	-1.3	3.9	i	0.6
CCn1c(SCC(=O)NC2CCCCC2)nc2ccccc2c1=O	-9	-4	0.74	16	10	0.5	-1.3	i	2.4
C=CCOC(=O)C1=C(C)NC(C)=C(C(=O)OCC=C)C1c1ccc(O)cc1	6	-6	0.71	.	.	.	-0.9	.	-26
COC(=O)[C@@]1(Cc2ccc(F)cc2)[C@H]2c3cc(C(=O)N4CCCC4)n(CCF)c3C[C@H]2CN1C(=O)c1ccccc1	.	.	.	-9	1	3.1	-4.4	i	.
CC1(C)CC(NC(=O)c2cc([N+](=O)[O-])cc([N+](=O)[O-])c2)CC(C)(C)N1	.	-2	0.66	4	6	-2.0	-1.7	i	4.4
O=C(N/N=C/c1ccc[nH]1)c1ccncc1	-5	-9	.	13	14	-1.7	-3.2	i	.
c1ccc(OCc2nn3c(-c4ccccn4)nnc3s2)cc1	.	-9	0.72	.	.	.	0.0	.	1.4
CC(C)C[C@@H](CNCC(=O)[C@H](Cc1c[nH]c2ccccc12)NC(=O)c1[nH]cnc1C(=O)N[C@@H](C)CN)NC(=O)c1nc[nH]c1C(=O)N[C@@H](C)C(=O)O	.	1	.	11	7	-2.5	1.9	i	.
COc1ccc(CNC(=O)CCNS(=O)(=O)c2cccc3nsnc23)cc1	1	1	0.68	5	-4	1.6	7.8	.	1.1
CCOc1ccc(Nc2cc(C)nc3ccc(C)cc23)cc1	1	2	0.69	4	-10	-7.1	1.4	i	11
COc1ccccc1CCNC(=O)C(=O)c1cn(CC(=O)N2CCOCC2)c2ccccc12	-4	5	0.7	-5	-2	4.8	-3.6	i	6.4
Nc1nc(NCCCN2CCOCC2)nc(Nc2ccc(F)cc2)c1[N+](=O)[O-]	1	-12	0.66	.	.	.	0.6	.	15
Cc1ccc(CNC(=O)CN2C(=O)NC3(CCCC3)C2=O)cc1	1	6	0.69	3	7	1.0	5.0	i	1.4
CCOC(=O)C(C)Sc1nc(-c2ccccn2)ncc1OC (stereo unspecified)	-6	-2	0.7	-25	-21	-6.2	-1.1	i	0.7
COc1cc2ccccc2cc1C(=O)NCC(c1cccs1)N(C)C (stereo unspecified)	-3	-4	0.69	-24*	-9.3*	1.7*	-4.9	i	-56
O=C(O)CCc1ccc(-c2ccccc2)n1CC(=O)Nc1cccc(C(F)(F)F)c1	3	4	0.68	-1	-3	22	5.6	i	-3.4

Look-ups from the entries so far:
N#Cc1cc(C(=O)c2cc(F)ccc2O)cn(-c2nccs2)c1=O @ UCH37 inh = 5.5
CC(=O)Nc1ccc(S(=O)(=O)Nc2cccc(-c3ccc4nncn4n3)c2)cc1 @ B2AR ag = 3

(further entries)
SMILES	ALR H2O2 inh	B2AR ag	E coli growth	rRNA inh HTS	rRNA inh HTS OD600	rRNA inh HTS RFP	HNF4A DNA FP	FGF22 binding	UCH37 inh
Cc1ccc(CNC(=O)/C=C/c2ccc(S(=O)(=O)N3CCOCC3)cc2)cc1	.	3	0.72	.	.	.	-1.7	i	-0.6
Cc1cnc(C(=O)OCC(=O)Nc2cc(-c3ccccc3)nn2-c2ccccc2)cn1	1	-21	.	0	1	2.5	0.3	.	.
O=C(/C=C/c1ccccc1Cl)Nc1cccc(O)c1	12	7	0.64	-15	-15	-4.8	4.4	i	3.8
O=C(O)C1CCN(C(=O)c2ccccc2C(=O)N2CCC(C(=O)O)CC2)CC1	0	1	0.67	9	1	-2.4	-2.8	i	3.0
Cc1cc(C)n2c(SCCC(C)C)nnc2n1	-4	-10	0.74	.	.	.	-2.3	.	-3.7
CCOC(=O)c1sc2nc3c(SCC(=O)O)cc(C(=O)c4ccccc4O)cn3c(=O)c2c1C	8	20	.	3	4	-6.4	-64	i	.
CCN(CC(=O)Nc1ccc(NC(C)=O)cc1)CC(=O)Nc1ccccc1C(=O)c1ccccc1	4	-16	0.69	-23	-9	20	2.5	i	5.7
COc1cccc(CC(=O)OC(C)C(=O)Nc2ccc(N3CCOCC3)cc2)c1 (stereo unspecified)	51	1	0.7	2	3	-1.3	2.3	i	3.0
C=CCNC(=O)c1cn(CC)c2cc(N3CCN(C(=O)c4ccco4)CC3)c(F)cc2c1=O	-1	13	0.057*	-58	-78	-15	0.3	i	-227
CC(C)(C)CC(=O)Nc1nnc(SCC(=O)NC2CCCCC2)s1	-12	8	0.7	-4	1	-0.4	3.8	i	1.4
Cc1nnsc1S(=O)c1ccc(F)cc1 (stereo unspecified)	1	1	0.67	5	5	-2.7	3.4	i	1.5
COc1ccc(C2CC(=O)c3c(O)cc(O)cc3O2)cc1O (stereo unspecified)	.	5	0.66	-18	-15	-20	0.7	i	.
COc1cc(/C=C2\SC(=S)N(CCC(=O)Nc3ccccc3O)C2=O)cc(OC)c1OC	1	22	0.71	3	0	-4.6	3.5	i	7.0
CCNC(=O)N1c2ccccc2Sc2ccccc21	32	-7	0.67	0	2	-3.9	1.4	i	3.1
COc1cc(-c2nnc(COC(=O)c3cccn3C)o2)cc(OC)c1OC	.	-5	0.7	-15	-19	-0.8	-0.9	i	0.8
CNC(=S)N1C2CCCC1CC(NC(=O)c1ccc(F)cc1)C2 (stereo unspecified)	-3	-7	0.68	14	14	0.6	1.7	i	-0.7
Cn1c(NCCCO)nc2ccccc21	2	1	0.7	.	.	.	-1.7	.	3.8
Clc1ccc(CSc2ncnc3c2ncn3C2CCCCO2)cc1 (stereo unspecified)	.	-2	0.66	11	-37	3.6	0.1	i	-2.2
COc1ccc(Cl)cc1NC(=O)CNc1ccc(F)cc1C	-8	5	0.67	.	.	.	0.7	.	0.3
CNC(=O)c1c(NC(=O)c2ccc(S(=O)(=O)N3CC(C)OC(C)C3)cc2)sc2c1CCN(C(C)C)C2 (stereo unspecified)	21	13	0.75	-1	4	-1.0	6.4	i	5.6
CNC(=O)c1ccccc1F	3	2	0.7	.	.	.	0.2	.	1.6
CCc1nc2c(OCC(=O)c3ccc(Cl)cc3Cl)cccn2c1N(C=O)Cc1ccc(OC)cc1	.	.	.	-3	-13	3.0	2.0	i	.
COc1ccc(NC(=O)c2ccc(NC(=O)c3ccncc3)cc2)cc1	-3	6	0.7	-1	8	-0.8	2.4	i	-1.2
C=CCN1C(=O)c2ccccc2Sc2ccc(C(=O)NC(C)C)cc21	-3	1	0.67	-6	-11	3.8	-0.2	i	6.0
COc1ccc(NC(=O)COC(=O)CNC(=O)C2CCCCC2)cc1OC	-9	2	0.67	10	5	2.5	-1.9	i	1.6

Continued.
SMILES	ALR H2O2 inh	B2AR ag	E coli growth	rRNA inh HTS	rRNA inh HTS OD600	rRNA inh HTS RFP	HNF4A DNA FP	FGF22 binding	UCH37 inh
O=C(c1ccco1)N1CCN(c2nc(C(F)(F)F)nc3c2nnn3Cc2ccccc2)CC1	.	9	0.76	.	.	.	-5.4	.	2.0
NC(=O)c1cc2c(s1)-c1cc(Cl)ccc1SC2	-10	7	0.63	6	6	6.3	1.3	i	-22
CCCn1c(SCc2nc(-c3cccs3)no2)nnc1-c1ccncc1	-10	3	0.72	1	-2	-0.5	2.7	.	2.2
Cc1ccc(Nc2nc(CSc3nnnn3C)cs2)cc1	99*	5	0.69	.	.	.	12	.	3.1
Cc1nnc(SCC(=O)c2ccc(Br)cc2)s1	32	2	0.54	2	0	-0.3	-0.5	i	-1.2
CCOc1ccc(-c2nnc3ccc(SCC(=O)NCc4ccco4)nn23)cc1	0	-2	0.71	.	.	.	0.6	.	-34
CCc1cc(-c2ccc3c(c2)COc2c4ccccc4nn2-3)on1	.	-5	0.66	.	.	.	-5.3	.	3.9
Cc1nc(N(C)Cc2ccccc2)c2nnn(Cc3ccccc3)c2n1	-6	-1	0.72	.	.	.	0.5	.	6.3
Cc1ccccc1Nc1c(-c2ccccn2)nc2ccccn12	99*	-6	0.59	-54*	-30*	-14*	-4.4	i	-2.4
C=CCn1c(SCCOC)nc2c1c(=O)[nH]c(=O)n2C	4	-35	0.78	11	5	-2.0	0.4	i	4.0
O=[N+]([O-])c1cc(CN2CCCC2)ccc1Sc1ccc(Cl)cc1	-7	1	0.65	-28	-42	-8.1	-3.4	i	1.4
CCc1nnc(NC(=O)c2cccc(NC(=O)C(C)C)c2)s1	-25	-12	0.72	.	.	.	5.5	.	7.3
COc1ccc(C2(c3ccc(OC)cc3)NC(=O)N(CC(=O)Nc3ccc(N4CCOCC4)cc3)C2=O)cc1	-2	17	0.67	2	0	1.5	0.5	.	4.7
C=C(Cl)COc1ccc2c(CCCC)cc(=O)oc2c1	-20	-20	0.69	.	.	.	-0.4	.	-6.3
Cc1cc(=O)oc2cc(OCC(=O)N3CCN(C(=O)c4ccco4)CC3)ccc12	-5	-4	0.69	12	4	1.0	0.7	i	-33

An excerpt of these results, with two lines to a compound.
Values in the order: ALR H2O2 inh | B2AR ag | E coli growth | rRNA inh HTS | rRNA inh HTS OD600 | rRNA inh HTS RFP | HNF4A DNA FP | FGF22 binding | UCH37 inh
- CCOc1ccc(-c2nnc3ccc(SCC(=O)NCc4ccco4)nn23)cc1
 : 0 | -2 | 0.71 | . | . | . | 0.6 | . | -34
- CCc1cc(-c2ccc3c(c2)COc2c4ccccc4nn2-3)on1
 : . | -5 | 0.66 | . | . | . | -5.3 | . | 3.9

Compound activity (PubChem)
